VACV mCherry inh = vaccinia inhibition (mCherry reporter) | Vaccinia virus mCherry reporter infection, fluorescence; about a quarter of the inactives have no number | Potency, µM (titrated, usually from 36.5 µM), without a hit: top-dose activity change, negative = inhibition, hits mostly inhibitors | actives 0.63% (n = 310,000) | AID 720579; active = well fitted inhibition curve with a large enough effect; inconclusive = small, poorly fitted or top-dose-only effect; inactive = no such curve, though single readings can be large or run the other way; tested in A549 cells; note: nearly all actives have a fitted effect of over 35% in size; inactives centre near -10
VACV Venus inh = vaccinia inhibition (Venus reporter). Vaccinia virus Venus reporter expression, fluorescence. Potency, µM (doses to about 36.5 µM), for inactives: at the top dose activity change, negative = inhibition, actives largely listed as inhibitors. actives 0.46% (n = 330,000). AID 720580; active means well fitted inhibition curve with a large enough effect; inconclusive means small, poorly fitted or top-dose-only effect; inactive means no such curve, though single readings can be large or run the other way; tested in A549 cells; note: nearly all actives have a fitted effect of over 30% in size; inactives centre near -10
The depositor's hits bear a star; & = joins results of further samples; [ ] = remark or other dose. % is set by controls: 0 for no effect and ±100 for the full control effect; potency is the fitted concentration of half-maximal effect.

For Cc1ccc(-c2nc3ccc(Cl)cc3n2OC(=O)N(C)C)cc1 the results were VACV mCherry inh inconclusive and VACV Venus inh inconclusive.
`CCN(CC)CCN(C(=O)c1ccc(C(=O)c2ccccc2)cc1)c1nc2ccc(OC)cc2s1` gave VACV mCherry inh -11% and VACV Venus inh -14%.
`O=C(NCCN1C(=O)S/C(=C\c2ccc(Cl)c(Cl)c2)C1=O)c1cnccn1` gave VACV mCherry inh -12% and VACV Venus inh -6%.
Screening O=C(CNC(=O)c1cccs1)NCC(=O)OCc1ccccc1Br returned VACV mCherry inh -2% and VACV Venus inh -14%.
Cc1nc2ccc(NC(=O)Cc3cccc(F)c3)cc2s1 was read as VACV mCherry inh -7% and VACV Venus inh -6%.
`CCN(CC)CCSc1nnc2c3ccccc3n(CCc3ccccc3)c2n1` gave VACV mCherry inh inconclusive and VACV Venus inh inconclusive.
CC(C)(C)C(=O)COC(=O)c1ccc(O)cc1 was read as VACV mCherry inh -6% and VACV Venus inh -19%.
Screening CC(C)(C)OC(=O)CNC(=O)c1nc[nH]c1C(=O)NCc1ccccc1 returned VACV mCherry inh -9% and VACV Venus inh inconclusive.
c1ccc(Cn2nnc3c(N4CCC5(CC4)OCCO5)ncnc32)cc1 was read as VACV mCherry inh -6% and VACV Venus inh -5%.
For O=C(CSc1cccc(C(F)(F)F)c1)Nc1ccc(N2CCOCC2)cc1 the results were VACV mCherry inh -5% and VACV Venus inh -19%.
CCOC(=O)CC(=O)CSc1nc(-c2ccccc2)cc(-c2ccccc2)c1C#N was read as VACV mCherry inh -12% and VACV Venus inh -3%.
Screening CC(C)Sc1ncc(Cl)c(C(=O)Nc2nc3ccc(S(C)(=O)=O)cc3s2)n1 returned VACV mCherry inh -3% and VACV Venus inh -7%.
`O=C(CCC1CCCCC1)NNC(=O)NC12CC3CC(CC(C3)C1)C2` gave VACV mCherry inh -7% and VACV Venus inh -22%.
Screening Cn1nc(C(C)(C)C)cc1C(=O)N1CCCCC1c1cc(C(=O)NCc2cccnc2)no1 (configuration not stated) returned VACV mCherry inh inactive and VACV Venus inh -15%.
Screening CCSCCCn1[nH]c2ccccc2c1=O returned VACV mCherry inh -14% and VACV Venus inh 0%.
For CC(=O)Oc1ccc(C(=O)O)c(OC(C)=O)c1 the results were VACV mCherry inh -3%[7.34 µM] and VACV Venus inh -8%[7.34 µM].
Screening COCCNC(=O)/C(C#N)=C/c1cccc(NC(=O)c2ccccc2Cl)c1 returned VACV mCherry inh -1% and VACV Venus inh 2%.
`CC(=O)Nc1ccc2c(c1)C(=O)c1ccccc1C2=O` gave VACV mCherry inh -8% and VACV Venus inh -5%.
COc1cccc(N2CCN(C(=O)CCCn3c(=O)[nH]c4ccc(Br)cc4c3=O)CC2)c1 was read as VACV mCherry inh -26% and VACV Venus inh -15%.
CC(C)CN(CCCNC(=O)c1cc(-c2cccs2)nc2ccccc12)CC(C)C was read as VACV mCherry inh -21% and VACV Venus inh -21%.
`CNC(=O)OC(C)CNS(=O)(=O)c1ccc(C)cc1` (configuration not stated) gave VACV mCherry inh inactive and VACV Venus inh -11%.
COc1ccccc1CNC(=O)CCc1c(C)nc2cc(-c3ccc(Cl)cc3)nn2c1C was read as VACV mCherry inh -29% and VACV Venus inh -22%.
`COC(=O)c1c(NC(=O)COC(=O)c2ccc(O)cc2)sc2c1CCCCC2` gave VACV mCherry inh inconclusive and VACV Venus inh -9%.
O=C(C[n+]1cc(-c2ccc(Cl)c(Cl)c2)n2c1CCC2)N1c2ccccc2Sc2ccccc21 was read as VACV mCherry inh -15% and VACV Venus inh -7%.
`CCN(CC)C(=O)c1sc2c(c1C)c(=O)n(Cc1ccccc1)c(=O)n2Cc1c(C)cc(C)cc1C` gave VACV mCherry inh inconclusive and VACV Venus inh -28%.
O=C(COC(=O)c1cc(S(=O)(=O)N2CCCCC2)ccc1N1CCOCC1)c1ccc(Cl)cc1 was read as VACV mCherry inh inactive and VACV Venus inh -11%.
CC(C)(C)c1ccc(OCCC(=O)OCC(=O)Nc2ccc(N3CCOCC3)cc2)cc1 was read as VACV mCherry inh inactive and VACV Venus inh -13%.
`O=C(CN1CCN(Cc2ccccc2)CC1)N/N=C\C=C/c1ccco1` gave VACV mCherry inh -9% and VACV Venus inh 0%.
For CC(C)C[C@@H]1COc2cccc(N3CCN(C)CC3)c2S(=O)(=O)N1 the results were VACV mCherry inh -2% and VACV Venus inh -2%.
COCC(=O)Nc1ccc(S(=O)(=O)Nc2onc(C)c2C)cc1 was read as VACV mCherry inh -2% and VACV Venus inh -22%.

A draw from above in order of count of non-hydrogen atoms, high to low:
`CCN(CC)C(=O)c1sc2c(c1C)c(=O)n(Cc1ccccc1)c(=O)n2Cc1c(C)cc(C)cc1C` gave VACV mCherry inh inconclusive and VACV Venus inh -28%.
O=C(COC(=O)c1cc(S(=O)(=O)N2CCCCC2)ccc1N1CCOCC1)c1ccc(Cl)cc1 was read as VACV mCherry inh inactive and VACV Venus inh -11%.
COc1cccc(N2CCN(C(=O)CCCn3c(=O)[nH]c4ccc(Br)cc4c3=O)CC2)c1 was read as VACV mCherry inh -26% and VACV Venus inh -15%.
CC(C)CN(CCCNC(=O)c1cc(-c2cccs2)nc2ccccc12)CC(C)C was read as VACV mCherry inh -21% and VACV Venus inh -21%.
`COC(=O)c1c(NC(=O)COC(=O)c2ccc(O)cc2)sc2c1CCCCC2` gave VACV mCherry inh inconclusive and VACV Venus inh -9%.
Screening COCCNC(=O)/C(C#N)=C/c1cccc(NC(=O)c2ccccc2Cl)c1 returned VACV mCherry inh -1% and VACV Venus inh 2%.
`O=C(CN1CCN(Cc2ccccc2)CC1)N/N=C\C=C/c1ccco1` gave VACV mCherry inh -9% and VACV Venus inh 0%.
For CC(C)C[C@@H]1COc2cccc(N3CCN(C)CC3)c2S(=O)(=O)N1 the results were VACV mCherry inh -2% and VACV Venus inh -2%.
COCC(=O)Nc1ccc(S(=O)(=O)Nc2onc(C)c2C)cc1 was read as VACV mCherry inh -2% and VACV Venus inh -22%.
`CNC(=O)OC(C)CNS(=O)(=O)c1ccc(C)cc1` (configuration not stated) gave VACV mCherry inh inactive and VACV Venus inh -11%.
For CC(=O)Oc1ccc(C(=O)O)c(OC(C)=O)c1 the results were VACV mCherry inh -3%[7.34 µM] and VACV Venus inh -8%[7.34 µM].

Continuation:
Screening CCCC(C)C(=O)N(Cc1ccccc1)c1ccccn1 (configuration not stated) returned VACV mCherry inh -6% and VACV Venus inh -11%.
For COc1ccc(-c2nnc(SCCC(=O)O)n2C)cc1OC the results were VACV mCherry inh inactive and VACV Venus inh -14%.
For CC(=O)Nc1cccc(NC(=O)COc2ccc3c(c2)OCO3)c1 the results were VACV mCherry inh inactive and VACV Venus inh -8%.
For COC(CNC(=O)Cn1ncc2ccsc2c1=O)OC the results were VACV mCherry inh -20% and VACV Venus inh -22%.
Screening CCOC(=O)c1cnn(-c2ccccc2)c1-n1cccc1C(=O)C(=O)Nc1ccccc1C(F)(F)F returned VACV Venus inh -9%.
Screening COc1ccc(-c2ccc(CCC(=O)O)n2-c2ccc(Cl)cc2C)cc1 returned VACV mCherry inh -2% and VACV Venus inh 9%.
`O=C1c2cc([N+](=O)[O-])ccc2-c2cc(Br)c(N=C(NO)C(F)(F)F)cc21` gave VACV mCherry inh inconclusive and VACV Venus inh -21%.
Screening COc1ccc(C)cc1NC(=O)C(c1ccccc1)N1CCN(CC(=O)N2CCCC2)CC1 (configuration not stated) returned VACV mCherry inh -11% and VACV Venus inh -5%.
For CCOc1cc(C2NN=C(c3ccc(C)cc3)S2)ccc1O (configuration not stated) the results were VACV mCherry inh inconclusive and VACV Venus inh -25%.
For Cc1ccc(C(=O)COC(=O)CCc2ccc(S(=O)(=O)N3CCCCC3)cc2)cc1 the results were VACV mCherry inh -24% and VACV Venus inh -15%.
Cc1nnc(SCC(=O)NCc2cccc(F)c2)c2nn(-c3ccccc3)c(C)c12 was read as VACV mCherry inh -26% and VACV Venus inh -27%.
For CCOC(=O)C1(Cc2ccccc2C(F)(F)F)CCN(C2CCCC2)CC1 the results were VACV mCherry inh -18% and VACV Venus inh -20%.
`Cc1cccc(C)c1NC(=O)CSc1nnc(NC(=O)CN2CCOCC2)s1` gave VACV mCherry inh -8% and VACV Venus inh -6%.
`CC(=N/O)/C(C)=N\NC(=O)c1ccccn1` gave VACV mCherry inh -1% and VACV Venus inh -2%.
Screening CC(C)NC(=O)c1cccc(NC(=O)CC2SC(N3CCCCC3)=NC2=O)c1 (configuration not stated) returned VACV mCherry inh -12% and VACV Venus inh -9%.
COc1ccc([N+](=O)[O-])cc1NC(=O)CSCc1ccccc1 was read as VACV mCherry inh -13% and VACV Venus inh -8%.
`CCCNC(=S)N1CCC(NC(=O)C23CC4CC(CC(C4)C2)C3)CC1` gave VACV mCherry inh -13% and VACV Venus inh -11%.
COc1ccc(/C=C(\NC(=O)c2ccc(Cl)cc2)C(=O)NCc2cccnc2)cc1OC was read as VACV mCherry inh -5% and VACV Venus inh -21%.
`COc1cc(Cl)c(NC(=O)CN2C(=O)c3cccnc3Sc3ccccc32)c(OC)c1` gave VACV mCherry inh inconclusive and VACV Venus inh inconclusive.
`Cn1cc(/C=C(\C(=O)O)C(C(=O)O)=C2CCCCC2)c2ccccc21` gave VACV mCherry inh -9% and VACV Venus inh -9%.
CC1=NOC2(C)Nc3ncnn3C(c3ccccc3)C12 (configuration not stated) was read as VACV mCherry inh -9% and VACV Venus inh -13%.
For COc1ccc(S(=O)(=O)N2CCN(C(=O)C3CCCCC3)CC2)cc1 the results were VACV mCherry inh 16% and VACV Venus inh 4%.
`O=c1[nH]c(=O)n2ncnc2[nH]1` gave VACV mCherry inh -9% and VACV Venus inh -15%.
CCCCn1nnnc1NCc1ccc(OC)c(OC)c1 was read as VACV mCherry inh -15% and VACV Venus inh -12%.
For O=C(O)CCc1ccc(-c2cccs2)o1 the results were VACV mCherry inh inactive and VACV Venus inh 2%.
For OCC1(CCOc2ccccc2)CCN(Cc2ccc(OC(F)F)cc2)CC1 the results were VACV mCherry inh -13% and VACV Venus inh -26%.
Screening CN(C)S(=O)(=O)c1cc(NC(=O)CN2CCN(c3ccc(O)cc3)CC2)ccc1Cl returned VACV mCherry inh -13% and VACV Venus inh -3%.
For O=C(CCOc1ccccc1)Nc1ccnn1C1CCN(Cc2ccc(CO)o2)CC1 the results were VACV mCherry inh -20% and VACV Venus inh -16%.
For c1ccc(-n2cc(CN3CCCC3)c(-c3ccc4c(c3)OCO4)n2)cc1 the results were VACV mCherry inh -26% and VACV Venus inh -18%.
`COc1ccc(-n2nnnc2C2CCN(S(=O)(=O)c3ccc(NC(C)=O)cc3)CC2)cc1` gave VACV mCherry inh -18% and VACV Venus inh -26%.
`COc1ccc(/C=C/C(=O)NCC(c2ccc(F)cc2)N2CCOCC2)cc1OC` (configuration not stated) gave VACV mCherry inh -15% and VACV Venus inh 0%.
`c1ccc(CSc2nnnn2-c2cccc3ccccc23)nc1` gave VACV Venus inh -12%.
For CCC(C)NC(=O)NCc1ccccc1F (configuration not stated) the results were VACV mCherry inh 0% and VACV Venus inh 11%.
`O=C(CCC(=O)Nc1ccccc1Cl)NNC(=O)c1ccccc1[N+](=O)[O-]` gave VACV mCherry inh -15% and VACV Venus inh 5%.
O=C(Nc1cccc2cccnc12)c1ccc(-c2cccc(Cl)c2)o1 was read as VACV mCherry inh 2% and VACV Venus inh 3%.
Screening N=c1sccn1CC(=O)Nc1cc(Cl)ccc1Oc1ccccc1 returned VACV mCherry inh -18% and VACV Venus inh -10%.
`O=C(c1cc(-c2ccc(Br)cc2)on1)N1CCc2ccccc2C1` gave VACV mCherry inh -9% and VACV Venus inh -10%.
`CC1CCN(c2ccc3nnc(CCC(=O)Nc4cc(F)ccc4F)n3n2)CC1` gave VACV mCherry inh -21% and VACV Venus inh 5%.
CCCCc1c(O)nc(SCC(=O)N2CCCCC2)[nH]c1=O was read as VACV mCherry inh -2% and VACV Venus inh -2%.
`CCOC(=O)c1[nH]c2ccc(C(=O)OC)cc2c1C(=O)OCC` gave VACV mCherry inh inactive and VACV Venus inh -17%.
Screening O=C(NNC(=O)C12CC3CC(CC(Br)(C3)C1)C2)c1ccccc1F returned VACV mCherry inh -5% and VACV Venus inh -12%.
`COc1ccc(/C=N/NC(=O)c2cccs2)c2ccccc12` gave VACV mCherry inh -12% and VACV Venus inh -19%.
For COCCCN1C(=O)C(CC(=O)NCCc2ccccn2)CC(C(=O)N2CCOCC2)=C1C (configuration not stated) the results were VACV mCherry inh -11% and VACV Venus inh -7%.
COc1ccc(NC(=O)c2ccc(NC(=O)CCS(=O)(=O)c3cccs3)cc2)cc1OC was read as VACV mCherry inh -9% and VACV Venus inh 11%.
Screening CCOc1ccc(NC(=O)c2ccc3c(c2)S(=O)(=O)N=C2CCCCCN23)cc1 returned VACV mCherry inh -8% and VACV Venus inh -14%.
Cc1ccc(C)c(C(=O)COC(=O)CCCC(=O)Nc2cc(C(F)(F)F)ccc2Cl)c1 was read as VACV mCherry inh -13% and VACV Venus inh -11%&-11%.
Screening CC(C)NC(=O)N(C)C[C@@H]1OCc2cnnn2CCCC(=O)N([C@H](C)CO)C[C@H]1C returned VACV mCherry inh inactive and VACV Venus inh -12%.
Screening O=C(NCc1ccc2c(c1)OCO2)C1CCC(CNS(=O)(=O)c2ccccc2)CC1 (configuration not stated) returned VACV Venus inh -17%.
Screening CC(NC(=O)c1ccc(F)cc1)C(c1cccs1)N1CCN(C)CC1 (configuration not stated) returned VACV mCherry inh -6% and VACV Venus inh -15%.
`O=C(NC1CCCCCC1)C1CCCN(S(=O)(=O)c2cnc[nH]2)C1` (configuration not stated) gave VACV mCherry inh 6% and VACV Venus inh -6%.

High-throughput results deposited in PubChem BioAssay by National Center for Advancing Translational Sciences (NCATS).

Rows were taken by chance; 0.87% or so of the library scored in one or more.
